Compound activity deposited in PubChem BioAssay by National Center for Advancing Translational Sciences (NCATS).
D2 agonist: human D2 receptor agonism in beta-arrestin assay. P14416. DiscoveRx PathHunter D2 beta-arrestin, luminescence, 90 min; 100% = 57 uM dopamine signal. activation, % (concentration not given with the values). 360,000 compounds, 0.084% hits. AID 624465; in the data active = activation above about 40%; inconclusive = about 15% to 40%; inactive = below about 15%; further: the text of the record calls up to 30% inactive
Target sequence (P14416 whole entry, looked up): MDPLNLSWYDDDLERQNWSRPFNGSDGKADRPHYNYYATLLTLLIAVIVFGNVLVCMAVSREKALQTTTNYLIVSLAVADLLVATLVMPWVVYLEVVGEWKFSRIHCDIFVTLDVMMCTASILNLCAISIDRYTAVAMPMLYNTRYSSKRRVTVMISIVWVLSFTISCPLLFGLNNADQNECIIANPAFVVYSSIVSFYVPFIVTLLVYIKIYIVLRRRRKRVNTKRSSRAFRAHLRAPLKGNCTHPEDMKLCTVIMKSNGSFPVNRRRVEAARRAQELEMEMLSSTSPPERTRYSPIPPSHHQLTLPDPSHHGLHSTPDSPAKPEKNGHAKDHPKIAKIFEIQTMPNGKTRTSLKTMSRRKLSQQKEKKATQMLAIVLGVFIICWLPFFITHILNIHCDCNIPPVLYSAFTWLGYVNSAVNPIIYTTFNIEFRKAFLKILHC
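DiscoveRx PathHunter D2 beta-arrestin cells (2,100/well) attached overnight, then compound-stimulated 90 min at 37 C in HBSS/10 mM HEPES/0.1% Tween-20 buffer; beta-galactosidase complementation read by luminescence after 1 h at ambient temperature. Dopamine 57 uM final (EC100) as control.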
TRPML1 ag: activates the human TRPML1 channel | Q9GZU1 | TRPML1-expressing cells, Ca2+ dye fluorescence, FDSS; host cell line not named in the record; reference of the full effect not given here | activation, % (no concentration beside the values) | 410,000 compounds, 0.12% hits | AID 624414; in the data active = activation above about 50%; inconclusive = about 30% to 50%; inactive = below about 30%; further: 0% is about no effect; the text of the record puts the active cut at 80%
Target sequence (Q9GZU1 whole entry, looked up): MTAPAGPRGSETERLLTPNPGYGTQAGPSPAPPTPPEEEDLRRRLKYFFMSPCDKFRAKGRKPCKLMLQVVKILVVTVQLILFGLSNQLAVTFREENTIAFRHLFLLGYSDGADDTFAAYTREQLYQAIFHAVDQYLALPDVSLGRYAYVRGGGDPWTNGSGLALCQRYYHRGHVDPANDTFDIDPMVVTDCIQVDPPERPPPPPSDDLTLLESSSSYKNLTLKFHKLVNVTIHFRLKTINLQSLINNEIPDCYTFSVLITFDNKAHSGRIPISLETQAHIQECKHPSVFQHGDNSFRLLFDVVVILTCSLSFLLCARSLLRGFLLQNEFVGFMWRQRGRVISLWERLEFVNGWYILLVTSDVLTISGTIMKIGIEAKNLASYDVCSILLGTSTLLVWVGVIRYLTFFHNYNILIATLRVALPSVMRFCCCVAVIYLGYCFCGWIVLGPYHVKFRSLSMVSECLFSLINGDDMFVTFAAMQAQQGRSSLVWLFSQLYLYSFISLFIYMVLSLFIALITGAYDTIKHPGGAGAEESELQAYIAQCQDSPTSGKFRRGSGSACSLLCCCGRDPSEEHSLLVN
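Cells: TRPML1-DL, 1X Tet inducer, ~16 h at 37 degrees C/5% CO2. Dye: ABD Ca8 no-wash + quencher, 45-90 min RT. Read: 10 s baseline, compound add, 110 s agonist phase; 54-4 EC80 (4uM final), 110 s antagonist phase.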
D2 PAM: potentiates the human D2 dopamine receptor allosterically; P14416; potentiation, % (no concentration beside the values); 360,000 compounds, 0.23% hits; DiscoveRx D2 beta-arrestin cells, luminescence, 90 min; 100% = 57 uM dopamine signal; active = potentiation of 50% or more; inconclusive = 30% to 50%; inactive = 30% or less;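 further: compound concentration not given in the record; tested on top of an EC20 dose of dopamine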
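PathHunter beta-arrestin assay in DiscoveRx D2 cells. Compounds were added with an EC20 of dopamine (50 nM final) for 90 min at 37 deg C. Luminescence was read 1 h after detection reagent, with 57 uM dopamine as the EC100 control.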
Six1-Eya2 inh: Six1/Eya2 interaction inhibition; Q15475+O00167; AlphaScreen GST-Six1/His-Eya2 binding, biochemical; stronger effect = lower value; control for the full effect not named in the record; activity change, % (test concentration not listed); 360,000 compounds, 0.56% hits; AID 651725; in the data active = activity change below about -65%; inconclusive = about -30% to -65%; inactive = above about -30%; further: on the % scale 0 is the no-effect control and ±100 the full control effect
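Compounds are tested against tagged Six1 and Eya2 proteins bridged by glutathione donor and nickel acceptor beads; after a one-hour incubation at 37 °C without light, AlphaScreen emission is recorded.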
CtBP-E1A inh: inhibitors of CtBP/E1A interaction; 340,000 compounds, 0.49% hits; AlphaScreen GST-E1A/His-CtBP binding, 1536-well; stronger effect = lower value; control for the full effect not named in the record; activity change, % (test concentration not listed); in the data active means activity change below about -65%; inconclusive means about -30% to -65%; inactive means above about -30%; further: on the % scale 0 is the no-effect control and ±100 the full control effect
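AlphaScreen with 125 nM GST-E1A and 125 nM His-CtBP (5X stocks) in Tris pH 8.0, 300 mM NaCl, BSA, Tween 20, TCEP. Compounds preincubated 2 h at 37 deg C, then glutathione donor/nickel acceptor beads added for 1 h at 37 deg C in dark.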
PINK1 modulator: PINK1 expression modulation; Potency, µM (highest dose often 76.6 µM), for inactives: top-dose activation (PINK1 increase), hits mostly activators; 410,000 compounds, 0.2% hits; AID 624263; PINK1 immunofluorescence, high-content cytometry, 24 h; active = well fitted activation curve with a large enough effect; inconclusive = small, poorly fitted or top-dose-only effect; inactive = flat fitted curve, though single readings scatter; cell line not stated here;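 further: potency means the concentration at half of the fitted maximal effect; % of control where 0% means no effect; nearly all actives have a fitted effect of over 65% in size; a mitochondrial uncoupler was the plate control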
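Decision-based qHTS: stable cells, 24 h exposure to five compound concentrations, CCCP as control. Fixed cells stained for PINK1 plus nuclear, mitochondrial and cell markers, cytometer read.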
* marks the source's active call; other numbers are inactive results; & = joins results of further samples; [ ] = remark or other dose.

The first 2 records, to show the layout:
Screening COc1ccc(-c2cc(=O)c3ccccc3o2)cc1 returned D2 agonist 1.9, TRPML1 ag 0.8, D2 PAM -6, Six1-Eya2 inh 2, CtBP-E1A inh 1 and PINK1 modulator -0.5%&-0.3%.
`O=C(c1cccc(-n2cccc2)c1)N1CCN(S(=O)(=O)c2ccccc2Br)CC1` gave D2 agonist -4.5, TRPML1 ag 2.1, D2 PAM -28, Six1-Eya2 inh -22, CtBP-E1A inh -24 and PINK1 modulator -3.2%.

Main list, repeating the preview:
Screening COc1ccc(-c2cc(=O)c3ccccc3o2)cc1 returned D2 agonist 1.9, TRPML1 ag 0.8, D2 PAM -6, Six1-Eya2 inh 2, CtBP-E1A inh 1 and PINK1 modulator -0.5%&-0.3%.
`O=C(c1cccc(-n2cccc2)c1)N1CCN(S(=O)(=O)c2ccccc2Br)CC1` gave D2 agonist -4.5, TRPML1 ag 2.1, D2 PAM -28, Six1-Eya2 inh -22, CtBP-E1A inh -24 and PINK1 modulator -3.2%.
c1ccc(-c2cnc(-c3cccnc3)o2)cc1 was read as D2 agonist -1.1, TRPML1 ag -0.8, D2 PAM -5, Six1-Eya2 inh 1, CtBP-E1A inh 5 and PINK1 modulator -2.0%.
Screening Cc1nnc(SCCCCSc2nnc(C)c(=O)[nH]2)[nH]c1=O returned D2 agonist -4.2, TRPML1 ag 1.2, D2 PAM -3, Six1-Eya2 inh -21, CtBP-E1A inh -13 and PINK1 modulator -1.6%.
`CC(C)CCNC(=O)C(c1ccco1)N(C(=O)Cn1nnc2ccccc21)c1ccc2c(c1)OCO2` (stereo unspecified) gave D2 agonist -5.8, TRPML1 ag -0.3, D2 PAM -22, Six1-Eya2 inh 6, CtBP-E1A inh -5 and PINK1 modulator 6.0%.
Screening CCN(CC)C(c1ccc(F)cc1)c1nnnn1CC1CCCO1 (stereo unspecified) returned D2 agonist -1.2, TRPML1 ag 0.2, D2 PAM -15, Six1-Eya2 inh 12, CtBP-E1A inh 2 and PINK1 modulator -0.1%.
Cc1ccc2c(c1)NC(=O)c1cccnc1N2 was read as D2 agonist 1.9, TRPML1 ag -1.0, D2 PAM 8, Six1-Eya2 inh -6, CtBP-E1A inh 6 and PINK1 modulator 2.2%.
`COc1ccc(NC(=O)N(Cc2cc3ccc(OC)cc3[nH]c2=O)CC2CCCO2)cc1` (stereo unspecified) gave D2 agonist -2.0, TRPML1 ag -0.6, D2 PAM -4, Six1-Eya2 inh -3, CtBP-E1A inh 0 and PINK1 modulator 11%.
CCOc1ccc(CCNC(=O)Cn2cccc2C(=O)c2ccccc2C)cc1OCC was read as D2 agonist -3.4, TRPML1 ag 0.7, D2 PAM -4, Six1-Eya2 inh -13, CtBP-E1A inh -4 and PINK1 modulator 0.7%.
Screening CC(C)c1ccc(NC2CCCN(C(=O)CN3CCOC3=O)C2)cc1 (stereo unspecified) returned D2 agonist 0.9, TRPML1 ag -0.4, D2 PAM -12, Six1-Eya2 inh -1, CtBP-E1A inh 3 and PINK1 modulator -1.6%.
For O=C(O)c1ccccc1SCc1csc(-c2ccccc2)n1 the results were D2 agonist -4.1, TRPML1 ag -0.7, D2 PAM -4, Six1-Eya2 inh -9, CtBP-E1A inh 3 and PINK1 modulator -1.2%.
Screening CC(=O)c1cccc(NC(=O)C(OC(=O)c2cccc(S(=O)(=O)N(C)c3ccccc3)c2)c2ccccc2)c1 (stereo unspecified) returned D2 agonist -2.4, TRPML1 ag 0.3, D2 PAM 2, Six1-Eya2 inh -7, CtBP-E1A inh 2 and PINK1 modulator 2.4%.
For O=C(NCCc1ccccn1)C1CCN(S(=O)(=O)c2ccc(Cl)cc2)CC1 the results were D2 agonist -3.0, TRPML1 ag -0.2, D2 PAM -8, Six1-Eya2 inh 4, CtBP-E1A inh 6 and PINK1 modulator 3.2%.
CCC/C(=C1/c2ccccc2C(=O)N1c1ccccc1)c1cnc(OC)nc1 was read as D2 agonist -2.3, TRPML1 ag 1.4, D2 PAM -8, Six1-Eya2 inh -15, CtBP-E1A inh -4 and PINK1 modulator 0.7%.
`O=C(CCC(C(=O)O)N1C(=O)c2ccccc2C1=O)Nc1ccccc1` (stereo unspecified) gave D2 agonist -4.6, TRPML1 ag 1.5, D2 PAM -9, Six1-Eya2 inh 12, CtBP-E1A inh -18 and PINK1 modulator -1.1%.
Screening CCCn1c(SCC(=O)NC2CC2)nnc1-c1cccs1 returned D2 agonist 5.5, TRPML1 ag -0.3, D2 PAM 5, Six1-Eya2 inh 1, CtBP-E1A inh 6 and PINK1 modulator -0.3%.
For O=C(c1cc([N+](=O)[O-])ccc1Cl)N1CCN(Cc2ccccc2)CC1 the results were D2 agonist -4.1, TRPML1 ag -0.3, D2 PAM -2, Six1-Eya2 inh -2, CtBP-E1A inh 3 and PINK1 modulator 3.9%.
`COc1ccc(OC)c(CN2C(=O)c3ccccc3C2c2nnnn2Cc2ccccc2)c1` (stereo unspecified) gave TRPML1 ag -0.9, Six1-Eya2 inh 2, CtBP-E1A inh 5 and PINK1 modulator -0.9%.
`CCCCCCC(C)OC(=O)Nc1cccc2ccccc12` (stereo unspecified) gave D2 agonist -0.7, TRPML1 ag 1.1, D2 PAM -21, Six1-Eya2 inh 38 and PINK1 modulator 0.3%.
Screening O=C(Nc1ccccc1)c1ccccc1NC(=O)c1ccccc1C(=O)O returned D2 agonist -4.1, TRPML1 ag 1.5, D2 PAM -3, Six1-Eya2 inh 11, CtBP-E1A inh 0 and PINK1 modulator -0.5%.
`Cc1cc(C)n2nc(SCC3COc4ccccc4O3)nc2n1` (stereo unspecified) gave D2 agonist -2.2, TRPML1 ag -0.5, D2 PAM -4, Six1-Eya2 inh -22, CtBP-E1A inh -27 and PINK1 modulator 2.3%.
Screening Cn1c(=O)c2cc(NC(=S)NCc3ccccc3F)ccc2n1Cc1ccccc1 returned D2 agonist -1.8, TRPML1 ag -0.4, D2 PAM -4, Six1-Eya2 inh -1, CtBP-E1A inh -6 and PINK1 modulator 0.7%.
`Cc1ccnn1CC(=O)N/N=C/c1ccc2c(c1)OCO2` gave D2 agonist -5.9, TRPML1 ag 0.3, D2 PAM -2, Six1-Eya2 inh 4, CtBP-E1A inh 14 and PINK1 modulator 4.2%.
`CCOCCCNC(=S)N1CCN(c2nc(-c3ccccc3)cs2)CC1` gave D2 agonist -4.7, TRPML1 ag 1.5, D2 PAM -3, Six1-Eya2 inh -13, CtBP-E1A inh -15 and PINK1 modulator 2.9%.
O=C(Nc1ccc(-c2nc3ccccc3[nH]2)cc1)C1CCCN(Cc2ccn[nH]2)C1 (stereo unspecified) was read as D2 agonist 1.5, TRPML1 ag -1.4, D2 PAM -15, Six1-Eya2 inh inconclusive, CtBP-E1A inh -22 and PINK1 modulator 4.6%.
For Cc1cccc(C)c1NC(=O)COC(=O)c1ccc2[nH]c3c(c2c1)CCCC3 the results were D2 agonist -0.8, TRPML1 ag -0.1, D2 PAM -8, Six1-Eya2 inh -1, CtBP-E1A inh -17 and PINK1 modulator 2.3%.
`COc1cccc(C(=O)NC(=O)Nc2cc(C)[nH]n2)c1` gave D2 agonist -0.7, TRPML1 ag -0.9, D2 PAM -2, Six1-Eya2 inh 11, CtBP-E1A inh 4 and PINK1 modulator 6.3%.
`Cc1cccc(CSC2=NCCN2C(=O)c2ccc(Br)o2)c1` gave D2 agonist -4.4, TRPML1 ag 1.1, D2 PAM -7, Six1-Eya2 inh 0, CtBP-E1A inh 3 and PINK1 modulator 0.3%.
`Cc1cc(C)n2nc(C(=O)OCC(=O)NNC(=O)c3ccc(Cl)cc3)nc2n1` gave D2 agonist -8.7, TRPML1 ag -0.5, D2 PAM -8, Six1-Eya2 inh 2, CtBP-E1A inh -2 and PINK1 modulator 3.7%.
For CCC1Cc2c(nc(N)c3c(N)nc(N4CCOCC4)c(C#N)c23)O1 (stereo unspecified) the results were D2 agonist 4.7, TRPML1 ag -0.2, D2 PAM 2, Six1-Eya2 inh inconclusive, CtBP-E1A inh -18 and PINK1 modulator 1.4%.
Screening CC(=O)/C(=C\N(C)C)Sc1ccc(Cl)cc1 returned D2 agonist -1.2, TRPML1 ag 1.0, D2 PAM -6, Six1-Eya2 inh 0, CtBP-E1A inh 2 and PINK1 modulator 0.1%.
Screening O=C(NCCCc1ccccc1)c1cccc(NC(=O)C2CCCC2)c1 returned D2 agonist 1.4, TRPML1 ag -1.1, Six1-Eya2 inh 4, CtBP-E1A inh 5 and PINK1 modulator -1.2%.
For Cc1nc2scc(C)n2c(=O)c1S(=O)(=O)Nc1ccc(N2CCOCC2)cc1 the results were D2 agonist -0.6, TRPML1 ag 0.3&-0.2, D2 PAM -10, Six1-Eya2 inh 0, CtBP-E1A inh 3 and PINK1 modulator 1.9%&-0.3%.
`C/C(N)=C(/C#N)C(=O)COC(=O)C1CCN(C(=O)c2ccc(Cl)cc2)CC1` gave D2 agonist 1.4, TRPML1 ag -0.3, D2 PAM 4, Six1-Eya2 inh 3, CtBP-E1A inh 19 and PINK1 modulator 3.5%.
`C[C@H](NS(=O)(=O)c1ccc2c(c1)OCCCO2)C(=O)N1CCN(c2ccc(F)cc2)CC1` gave D2 agonist 5.4, TRPML1 ag 0.1, D2 PAM -4, Six1-Eya2 inh -3, CtBP-E1A inh 5 and PINK1 modulator 1.3%.
`O=C(CCNC(=O)c1ccccc1)NNC(=O)COc1ccccc1Cl` gave D2 agonist 3.2, TRPML1 ag 2.0, D2 PAM 4, Six1-Eya2 inh -5, CtBP-E1A inh 9 and PINK1 modulator 1.9%.
For CCN(CC)S(=O)(=O)c1ccc2oc(C(=O)N3CCCCCC3)c(C)c2c1 the results were D2 agonist -0.2, TRPML1 ag 0.6, D2 PAM 6, Six1-Eya2 inh 1, CtBP-E1A inh 0 and PINK1 modulator 2.0%.
CC(=O)Nc1cccc(-c2nnc3n2CC(C)S3)c1 (stereo unspecified) was read as D2 agonist -0.6, TRPML1 ag 0.8, D2 PAM 11, Six1-Eya2 inh 0, CtBP-E1A inh 3 and PINK1 modulator 3.9%[38.3 µM].
Screening COc1ccc(-c2c(C#N)c(SCC(=O)c3cc4ccccc4oc3=O)nc(C)c2C(=O)Nc2ccccc2)cc1 returned D2 agonist 0.2, TRPML1 ag 0.3, D2 PAM -3, Six1-Eya2 inh 3, CtBP-E1A inh 4 and PINK1 modulator inconclusive.
For COc1ccc(-c2n[nH]c(=S)n2-c2ccc(C)cc2)cc1 the results were D2 agonist 4.6, D2 PAM -14, Six1-Eya2 inh -4, CtBP-E1A inh 0 and PINK1 modulator -0.1%.
CCN(CC(=O)NCc1ccc(F)cc1)C(=O)C1CC1C (stereo unspecified) was read as D2 agonist -5.2, TRPML1 ag -0.6, D2 PAM -3, Six1-Eya2 inh 25, CtBP-E1A inh 0 and PINK1 modulator -0.2%.
For COc1ccc(S(=O)(=O)N(C)CC(=O)N2CCC(C(N)=O)CC2)cc1 the results were D2 agonist -1.4, TRPML1 ag 0.2, D2 PAM 5, Six1-Eya2 inh 4 and CtBP-E1A inh -2.
